# Screening data deposited in PubChem by National Center for Advancing Translational Sciences (NCATS).
# Rango complex inh = Rango-importin beta binding inhibition; Q14974; Rango CFP/YFP FRET sensor + importin beta, 45 min; Potency, µM (top dose mostly 92.2 µM), without a hit: top-dose inhibition of complex formation; 340,000 compounds, 0.031% hits; AID 540263; active = rising FRET ratio curve, often small or poorly fitted; inconclusive = mostly compound fluorescence or quenching in the first reads; inactive = flat curves in all reads;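 further: potency means the concentration at half of the fitted maximal effect; 0% = DMSO wells and 100% = buffer wells lacking importin beta; nearly all actives have a fitted effect of over 15% in size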
# Target sequence (Q14974 whole entry, looked up): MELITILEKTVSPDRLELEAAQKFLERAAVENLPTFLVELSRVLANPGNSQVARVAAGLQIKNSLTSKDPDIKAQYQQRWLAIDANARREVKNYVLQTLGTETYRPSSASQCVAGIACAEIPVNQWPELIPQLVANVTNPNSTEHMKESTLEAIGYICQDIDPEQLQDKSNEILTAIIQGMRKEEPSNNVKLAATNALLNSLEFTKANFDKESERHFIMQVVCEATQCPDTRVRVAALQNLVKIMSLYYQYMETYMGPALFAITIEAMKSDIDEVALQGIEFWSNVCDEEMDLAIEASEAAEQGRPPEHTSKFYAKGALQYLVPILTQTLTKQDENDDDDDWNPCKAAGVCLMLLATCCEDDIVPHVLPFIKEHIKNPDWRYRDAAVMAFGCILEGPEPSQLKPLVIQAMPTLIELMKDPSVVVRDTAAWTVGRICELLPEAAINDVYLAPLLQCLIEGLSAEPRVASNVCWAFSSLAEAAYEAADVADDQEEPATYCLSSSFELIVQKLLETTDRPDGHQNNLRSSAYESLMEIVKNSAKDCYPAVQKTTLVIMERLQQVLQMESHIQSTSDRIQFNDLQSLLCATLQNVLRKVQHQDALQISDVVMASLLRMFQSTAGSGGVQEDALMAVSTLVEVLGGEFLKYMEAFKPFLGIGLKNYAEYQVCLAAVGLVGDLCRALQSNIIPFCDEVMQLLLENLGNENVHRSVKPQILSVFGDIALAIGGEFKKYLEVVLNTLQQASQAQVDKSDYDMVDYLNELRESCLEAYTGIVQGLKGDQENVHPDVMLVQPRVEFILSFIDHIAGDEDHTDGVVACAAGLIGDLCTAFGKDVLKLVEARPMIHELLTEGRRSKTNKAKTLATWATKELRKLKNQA
#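 FRET biosensor (snurportin 1 IBB flanked by EYFP and cerulean), 50 nM, with compound 5 min, then 0.125 microM importin beta in PBS, 1 mM DTT, 0.02% Tween-20, 0.1% BSA. CFP/YFP ratio read after 45 min at room temperature; pre-read flags interference.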
# GLA inh pH 4.5 = inhibitors of human alpha-galactosidase A at pH 4.5. 230,000 tested, under 10 active. activity change, negative = inhibition, % at 105 µM. purified enzyme, 4-MU-alpha-Gal fluorescence, pH 4.5. P06280; inconclusive = small, poorly fitted or top-dose-only inhibition, or a rising curve; inactive = flat fitted curve, though single readings scatter; no compound was filed as active;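 further: 0% = full activity with enzyme and -100% = basal without enzyme; dose as in the result columns while the protocol names 77 µM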
# miR-21 FLuc = miR-21 reporter, rising signal. Potency, µM (top dose mostly 38.3 µM), for inactives: at the top dose reporter change, positive = more light. HeLa miR-21 FLuc reporter, luciferase, 48 h. AID 2288. 340,000 tested, under 10 active; active = well fitted rising curve with a large enough effect; inconclusive = small, poorly fitted or top-dose-only effect; inactive = no such curve, though single readings can be large or run the other way;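 further: % of control where 0% means no effect; miR-21 action dims this reporter so a rising signal means less miR-21 action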
#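 HeLa cells stably expressing CMV-driven firefly luciferase with a downstream miR-21 binding sequence, endogenously expressing miR-21, were treated with titrations (up to about 40uM final) for 48 hours at 37 degree Celsius. Luciferase luminescence was read after lysis.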
# Rango dissoc inh = prevents RanGTP from dissociating the Rango-importin beta complex. Biochemical FRET Rango-importin beta, RanGTP-induced dissociation. Potency, µM (doses to about 46.1 µM), inactives show at the top dose activity change, negative = inhibition. 340,000 compounds, 0.071% hits; active means falling FRET ratio curve, often poorly fitted, with flat reads before Ran was added; inconclusive means other falling curves, or compound fluorescence or quenching; inactive means flat or rising ratio curve;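 further: potency means the concentration at half of the fitted maximal effect; % of control where 0% means no effect; nearly all actives have a fitted effect of over 45% in size; -100% = wells without RanGTP and RCC1; the record marks most hits as doubtful in a second field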
#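 Two FRET readings bracket the reaction: one 5 min after compound meets Rango–importin beta, another 45 min after RanGTP-RCC1 (0.6 uM Ran, 0.2 uM RCC1, 2 mM GTP) is added. Only the second defines inhibition.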
# Starred values were filed as active, the others as inactive; ? = inconclusive; / = no result given. Not all compounds are listed; count on the stated rates, not on these rows.
canonical_smiles,Rango complex inh,GLA inh pH 4.5,miR-21 FLuc,Rango dissoc inh
Clc1ccc(CNc2ccccc2NCc2ccc(Cl)nc2)cn1,-1.8%,-12,9%,-13%
CCC1CCCCN1C(=O)Nc1ccc(F)cc1 (stereo not given),4.9%,-1,-12%,-1%
CCOC(=O)N1CCC(NC(=O)c2cc(COc3ccccc3SC)on2)CC1,3.0%,/,4%,11%
CCS(=O)(=O)N1Cc2ccccc2CC1C(=O)Nc1ccc(F)c(F)c1F (stereo not given),-3.7%,/,-34%,-1%
COCCCNC(=S)NNC(=S)Nc1ccccc1,-10%,-5,-34%,0%
CC(C)(C)C(=O)Nc1ccc(S(=O)(=O)N2CCC(c3nc4ccccc4[nH]3)CC2)cc1,-0.2%,/,/,5%
N=c1sccn1CC(=O)Nc1ccccc1-c1ccccc1,-0.3%,10,-10%,2%
O=C(O)c1ccccc1-c1ccc(/C=c2\sc3nc4cc(Br)cnc4n3c2=O)o1,?,-5,-4%,?
CCCc1nc(N)c(C#N)c(-c2ccco2)c1CC,?,-5,23%,-23%
COc1ccc(C(=O)NCc2cnn(C)c2)cc1OC1CCN(C(C)C)CC1,-3.6%,/,0%,8%
CCOC(=O)C1CCN(C(=O)c2ccc3c(Cl)c4c(nc3c2)CCCC4)CC1,0.1%,/,-10%,0%
NC(=O)CC(NC(=O)Cc1ccc(Cl)cc1)c1ccc(NC2CCCCCCC2)c([N+](=O)[O-])c1 (stereo not given),-0.9%,/,-3%,-8%
COc1ccc(NC(C)=O)cc1S(=O)(=O)N1CCN(C(=O)c2ccccc2F)CC1,6.1%,8,5%,-2%
Cc1cccc(N2CC(C(=O)Nc3nnc(SCC(=O)Nc4cc(C)on4)s3)CC2=O)c1 (stereo not given),0.1%,5,-4%,7%
COC(=O)CNC(=O)c1cn(-c2ccc(C)c(C)c2)c(=O)c2ccccc12,0.6%,/,-4%,-10%
CCN(CC)CCNC(=O)C(=O)NCC1OCCN1S(=O)(=O)c1ccc(Cl)cc1 (stereo not given),-1.6%,/,1%,-2%

# 15 of the compounds above, with two lines to a compound:
# Fields: Rango complex inh | GLA inh pH 4.5 | miR-21 FLuc | Rango dissoc inh
CCC1CCCCN1C(=O)Nc1ccc(F)cc1 (stereo not given)
    4.9% | -1 | -12% | -1%
CCOC(=O)N1CCC(NC(=O)c2cc(COc3ccccc3SC)on2)CC1
    3.0% | / | 4% | 11%
CCS(=O)(=O)N1Cc2ccccc2CC1C(=O)Nc1ccc(F)c(F)c1F (stereo not given)
    -3.7% | / | -34% | -1%
COCCCNC(=S)NNC(=S)Nc1ccccc1
    -10% | -5 | -34% | 0%
CC(C)(C)C(=O)Nc1ccc(S(=O)(=O)N2CCC(c3nc4ccccc4[nH]3)CC2)cc1
    -0.2% | / | / | 5%
N=c1sccn1CC(=O)Nc1ccccc1-c1ccccc1
    -0.3% | 10 | -10% | 2%
O=C(O)c1ccccc1-c1ccc(/C=c2\sc3nc4cc(Br)cnc4n3c2=O)o1
    ? | -5 | -4% | ?
CCCc1nc(N)c(C#N)c(-c2ccco2)c1CC
    ? | -5 | 23% | -23%
COc1ccc(C(=O)NCc2cnn(C)c2)cc1OC1CCN(C(C)C)CC1
    -3.6% | / | 0% | 8%
CCOC(=O)C1CCN(C(=O)c2ccc3c(Cl)c4c(nc3c2)CCCC4)CC1
    0.1% | / | -10% | 0%
NC(=O)CC(NC(=O)Cc1ccc(Cl)cc1)c1ccc(NC2CCCCCCC2)c([N+](=O)[O-])c1 (stereo not given)
    -0.9% | / | -3% | -8%
COc1ccc(NC(C)=O)cc1S(=O)(=O)N1CCN(C(=O)c2ccccc2F)CC1
    6.1% | 8 | 5% | -2%
Cc1cccc(N2CC(C(=O)Nc3nnc(SCC(=O)Nc4cc(C)on4)s3)CC2=O)c1 (stereo not given)
    0.1% | 5 | -4% | 7%
COC(=O)CNC(=O)c1cn(-c2ccc(C)c(C)c2)c(=O)c2ccccc12
    0.6% | / | -4% | -10%
CCN(CC)CCNC(=O)C(=O)NCC1OCCN1S(=O)(=O)c1ccc(Cl)cc1 (stereo not given)
    -1.6% | / | 1% | -2%

# Other compounds
canonical_smiles,Rango complex inh,GLA inh pH 4.5,miR-21 FLuc,Rango dissoc inh
COc1ccccc1OCC(=O)Nc1nonc1NC(=O)COc1ccccc1OC,0.5%,7,-14%,-15%
Cc1cc(C)c2c(n1)SCC(=O)N2CC(=O)NCCC1=CCCCC1,1.8%,10,-1%,-3%
O=C1CSC(=Nc2cc(Cl)ccc2Cl)N1,-1.0%,-10,1%,-1%
Cc1cc(=O)oc2cc(OCC(=O)NCCCN3CCOCC3)c(Cl)cc12,2.0%,/,2%,13%
Cc1ccc(NC(=S)N2CCC(N(C)CC3CCCO3)CC2)c(C)c1 (stereo not given),-7.1%,0,-2%,-20%
Cc1cc(=O)n2[nH]c(SCc3c(F)cccc3Cl)nc2n1,-0.6%,/,/,-9%
CCCOc1ccc(C(CC(=O)O)NC(=O)Cc2ccccc2)cc1 (stereo not given),5.6%,/,-5%,4%
O=[N+]([O-])c1ccc(NC(=S)N/C(=N/CS(=O)(=O)c2ccccc2)c2ccccc2)cc1,0.4%,-11,-21%,0%
COc1ccc(C(=O)NCc2nnc(SCC(=O)Nc3ccccc3OC)o2)cc1,1.7%,/,6%,0%
CCn1c(CCNC(=O)c2ccco2)nc2ccccc21,-3.8%,/,0%,-9%
CCN=c1sc2ccccc2n1CC(O)COc1ccccc1 (stereo not given),-4.0%,-1,9%,1%
COc1ccccc1OCCn1c(CO)nc2ccccc21,-0.2%,-4,-15%,-3%
COC(=O)Cn1c(CN(C)Cc2ccccc2)nc2c1c(=O)n(C)c(=O)n2C,1.2%,/,2%,-8%
CCSc1nnc(-c2cc3c(s2)-c2ccccc2CC3)o1,-1.5%,?,-54%,-13%
C/C(CC(=O)Nc1ccc2c(c1)OCO2)=N\NC(=O)c1ccc(N)cc1,?,-4,-23%,-23%
O=C(COc1ccc(S(=O)(=O)N2CCOCC2)cc1)N1CCc2ccccc2C1,1.8%,-8,4%,-4%
O=C(NCCCN1CCOCC1)c1cc(-c2ccc(Cl)cc2)on1,0.3%,10,6%,7%
CC(=O)N(/N=C/c1ccc([N+](=O)[O-])o1)c1nc2ccccc2c(=O)n1-c1ccccc1,0.2%,-1,-8%,-1%
CC1Cc2ccccc2N1CC(=O)Nc1ccc(S(=O)(=O)N(C)C)cc1 (stereo not given),?,8,1%,-24%
COc1ccc(N2CCN(C3CCCN(Cc4cccc(OC)c4)C3)CC2)cc1 (stereo not given),0.6%,/,-1%,-23%
CCN(CC(=O)Nc1ccccc1C(F)(F)F)C(=O)c1ccccc1Sc1ccccc1C#N,3.1%,/,/,-11%
CN(C)CCNC(NC(=O)c1cccs1)C(Cl)(Cl)Cl (stereo not given),2.7%,3,-8%,19%
COC(=O)Cc1[nH]c(=O)[nH]c1C(=O)OC,?,4,-4%,?
COc1ccc(NC(=O)CCN2CCCC2)c(OC)c1,0.3%,-12,1%,-16%
O=C(Nc1ccc(Cl)cc1)N1N=CCC1c1ccccc1 (stereo not given),-3.4%,2,-15%,-3%
CC(=O)OCC(=O)C1(O)CCC2C3CC(F)C4=CC(=O)CCC4(C)C3C(O)CC21C (stereo not given),-1.5%,/,/,10%
CCN1CCN(c2nc(C)c3c(n2)CC(C)CC3=O)CC1 (stereo not given),-2.4%,8,-2%,13%
CC1CCCC(C)N1CC(O)COC1CCC(C(C)(C)C)CC1 (stereo not given),2.9%,/,4%,1%
CCCn1c(NC(=O)CN2C(=O)NC3(CCCC3)C2=O)nc2ccccc21,-1.8%,/,/,-10%
COc1ccc(C(CNC(=O)c2ccc(Cl)c(S(=O)(=O)N3CCCC3)c2)N2CCCC2)cc1 (stereo not given),1.2%,/,/,4%
COc1ccc([C@H]2CC(=O)C=C(c3ccc(C(F)(F)F)c(C(F)(F)F)c3)C2)cc1OC,-0.7%,/,/,0%
CSCC(C)N1CCC(Oc2cccc(C(=O)NCc3ccccn3)c2)CC1 (stereo not given),?,/,-4%,?
CCOC(=O)C1CCN(Cc2ccc(F)c(F)c2)CC1,-2.9%,2,-1%,1%
CC(Sc1nnnn1-c1cccc(F)c1)C(=O)NC1CCCC1 (stereo not given),-0.1%,/,/,-3%
COc1ccccc1CNC(=O)CCc1nc2ccccc2c(=O)[nH]1,0.1%,-12,-6%,4%
CN1CCN(S(=O)(=O)c2cccc(C(=O)NCCOc3ccccc3F)c2)CC1,-2.1%,/,-18%,-6%
CC1CCN(S(=O)(=O)c2ccc(C(=O)N3CCOCC3)cc2)CC1,-0.5%,/,0%,6%
COC(=O)c1ccc(CSCC(=O)Nc2cc(OC)cc(OC)c2)o1,-0.9%,5,-9%,10%
O=C(O)c1cc(-c2ccc(Cl)s2)nc2ccccc12,?,19,-11%,-10%
Cc1cc(C)nc(OC(C(=O)O)C(OCCC(C)C)(c2ccccc2)c2ccccc2)n1 (stereo not given),-3.3%,/,18%,7%
Fc1ccc(/C=N/NC(=S)Nc2cccnc2)cc1,-2.0%,-9,-16%,0%
Cc1ccc(S(=O)(=O)C2(C(=O)N3CCN(c4cc(C)ccc4C)CC3)CC2)cc1,?,-11,9%,-20%
O=C(NCCOc1ccccc1Cl)C(=O)Nc1ccccc1,0.3%,2,-11%,-9%
C=CCC(=O)N1CCCC(CNC(=O)c2ccc(-c3ccccc3)cc2)C1 (stereo not given),-0.7%,-3,-14%,0%
COc1ccc(-c2cc(C3CCNCC3)[nH]n2)cc1,0.2%,/,-2%,8%
COc1cccc2cc(C(=O)N3CC(C)OC(C)C3)c(=O)oc12 (stereo not given),0.8%,/,3%,-18%
O=C(O)c1cc2c(ccc3ccccc32)[nH]1,-1.2%,-3,-7%,12%
CN(CCc1ccccc1)C(=O)c1ccc(NC(=O)Cc2cccc([N+](=O)[O-])c2)cc1,-0.2%,/,/,2%
CSc1ncccc1C(=O)N(C)CC(=O)Nc1ccc(Cl)c(C(F)(F)F)c1,-4.6%,/,4%,-2%
N#Cc1c(SCC(=O)Nc2ccccc2)nsc1SCC(=O)Nc1ccccc1,1.7%,-1,-4%,6%
COc1ccc(C2C(C(C)=O)=C(C)N=c3s/c(=C\c4cc(C)n(C)c4C)c(=O)n32)c(OC)c1 (stereo not given),?,-11,-17%,?
O=C(Nc1nccs1)c1ccc(Br)s1,0.3%,/,-41%,0%
Cc1cccc(OCCCC(=O)Nc2ccc(N3CCCCC3)cc2)c1C,-0.1%,5,-2%,-14%
COc1cc(C=O)ccc1OCCOCCOc1ccc(Cl)cc1,1.9%,-5,-1%,7%
C=CCOC(=O)N1CCC2CC1c1cc(-c3ccc(OC)cc3)ccc12 (stereo not given),-2.8%,/,/,9%
Cc1cc(C)n(-c2ccc(C(=O)NCC(=O)Nc3cc(Cl)ccc3Cl)cc2)n1,3.1%,/,/,-2%
